PINK1 modulator = modulators of PINK1 expression. PINK1 immunofluorescence, high-content cytometry, 24 h. Potency, µM (highest dose often 76.6 µM), for inactives: at the highest dose activation (PINK1 increase), hits mostly activators. actives 0.2% (n = 410,000). AID 624263; active = well fitted activation curve with a large enough effect; inconclusive = small, poorly fitted or top-dose-only effect; inactive = flat fitted curve, though single readings scatter; cell line not stated here;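 further: potency means the concentration at half of the fitted maximal effect; % of control where 0% means no effect; nearly all actives have a fitted effect of over 65% in size; a mitochondrial uncoupler was the plate control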
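Compound titrations (5 concentrations, 24 h) on a stable cell line; DMSO and CCCP controls. Endpoint: fixed-cell PINK1 immunofluorescence with mitochondrial, cell and nuclear markers, scanned by microplate cytometer.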
CtBP-E1A inh = CtBP/E1A binding inhibition; actives 0.49% (n = 340,000); activity change, % (concentration not given with the values); AlphaScreen GST-E1A/His-CtBP binding, 1536-well; hits give low values; control for the full effect not named in the record; in the data active means activity change below about -65%; inconclusive means about -30% to -65%; inactive means above about -30%; further: on the % scale 0 is the no-effect control and ±100 the full control effect
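AlphaScreen with 125 nM GST-E1A and 125 nM His-CtBP (5X stocks) in Tris pH 8.0, 300 mM NaCl, BSA, Tween 20, TCEP. Compounds preincubated 2 h at 37 deg C, then glutathione donor/nickel acceptor beads added for 1 h at 37 deg C in dark.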
D2 agonist = agonists of human D2 dopamine receptor (beta-arrestin); AID 624465; P14416; actives 0.084% (n = 360,000); activation, % (test concentration not listed); DiscoveRx PathHunter D2 beta-arrestin, luminescence, 90 min; 100% = 57 uM dopamine signal; in the data active = activation above about 40%; inconclusive = about 15% to 40%; inactive = below about 15%; further: compound concentration not given in the record; the text of the record calls up to 30% inactive
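DiscoveRx PathHunter D2 beta-arrestin cells (2,100/well) attached overnight, then compound-stimulated 90 min at 37 C in HBSS/10 mM HEPES/0.1% Tween-20 buffer; beta-galactosidase complementation read by luminescence after 1 h at ambient temperature. Dopamine 57 uM final (EC100) as control.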
TRPML1 inh = blocks the human TRPML1 channel. actives 0.02% (n = 390,000). Q9GZU1. activity change, negative = inhibition, % (concentration not given with the values). TRPML1-inducible cells, Ca2+ dye fluorescence, FDSS; hits give low values; inhibition of EC80 agonist-evoked calcium signal. AID 624415; in the data active means activity change below about -50%; inconclusive means about -30% to -50%; inactive means above about -30%;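 further: stimulus is agonist 54-4 at its EC80 concentration; on the % scale 0 is the no-effect control and ±100 the full control effect; compound concentration not given in the record; the text of the record puts the active cut at -80%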
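Calcium fluorescence in TRPML1-DL cells induced overnight with Tet: a 110 s read after compound pin addition, then a 110 s antagonist read after challenge with 54-4 at 4 uM final (EC80).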
TRPML1 ag = human mucolipin-1 channel agonism | Q9GZU1 | TRPML1-expressing cells, Ca2+ dye fluorescence, FDSS; host cell line not named in the record; reference of the full effect not given here | activation, % (no concentration beside the values) | actives 0.12% (n = 410,000); in the data active = activation above about 50%; inconclusive = about 30% to 50%; inactive = below about 30%; further: 0% is about no effect; the text of the record puts the active cut at 80%
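TRPML1-DL cells, Tet-induced overnight (~16 h, 37 degrees C), loaded 45-90 min at room temperature with Ca8 no-wash calcium dye plus quencher. FDSS fluorescence: 10 s baseline, compound pin-transfer, 110 s agonist read, then EC80 54-4 (4uM final) and 110 s antagonist read.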
Six1-Eya2 inh = Six1/Eya2 interaction inhibition; actives 0.56% (n = 360,000); activity change, % (no concentration beside the values); AlphaScreen GST-Six1/His-Eya2 binding, biochemical; hits give low values; control for the full effect not named in the record; AID 651725; Q15475+O00167; in the data active = activity change below about -65%; inconclusive = about -30% to -65%; inactive = above about -30%; further: on the % scale 0 is the no-effect control and ±100 the full control effect; compound concentration not given in the record
Target sequence (O00167 whole entry, looked up): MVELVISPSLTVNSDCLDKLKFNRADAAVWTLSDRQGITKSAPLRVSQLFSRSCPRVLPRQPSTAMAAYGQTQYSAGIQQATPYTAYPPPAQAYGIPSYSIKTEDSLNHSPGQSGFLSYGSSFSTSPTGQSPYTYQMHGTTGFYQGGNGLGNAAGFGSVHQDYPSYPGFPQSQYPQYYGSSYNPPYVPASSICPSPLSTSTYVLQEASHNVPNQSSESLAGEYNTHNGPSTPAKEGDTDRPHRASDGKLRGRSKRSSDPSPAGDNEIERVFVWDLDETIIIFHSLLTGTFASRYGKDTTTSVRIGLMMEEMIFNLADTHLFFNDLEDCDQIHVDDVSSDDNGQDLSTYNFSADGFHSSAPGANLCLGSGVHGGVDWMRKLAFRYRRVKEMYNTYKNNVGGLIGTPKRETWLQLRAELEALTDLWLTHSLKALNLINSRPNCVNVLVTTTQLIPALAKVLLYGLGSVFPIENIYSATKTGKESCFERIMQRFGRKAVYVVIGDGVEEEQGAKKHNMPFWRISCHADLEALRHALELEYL
Target sequence (Q15475 whole entry, looked up): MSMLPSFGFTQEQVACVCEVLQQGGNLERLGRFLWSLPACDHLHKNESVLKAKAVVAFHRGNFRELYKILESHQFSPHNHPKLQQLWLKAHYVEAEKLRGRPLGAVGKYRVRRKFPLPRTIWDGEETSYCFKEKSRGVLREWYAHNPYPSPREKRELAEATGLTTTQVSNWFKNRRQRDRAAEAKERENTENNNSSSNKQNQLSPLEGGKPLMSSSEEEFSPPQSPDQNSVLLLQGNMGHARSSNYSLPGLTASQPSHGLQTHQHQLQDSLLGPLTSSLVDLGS
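Six1/Eya2 binding was read as AlphaScreen signal after compounds were pinned into GST-Six1 plus His-tagged Eya2 (5X stock 250/500 nM) in pH 8.0 Tris/NaCl/TCEP buffer, beads added, then incubated 1 h, 37 C, dark.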
An asterisk follows results filed as active; ? = inconclusive; / = not tested or not shown; & = joins results of further samples; [ ] = another dose, or the depositor's remark.

SMILES | PINK1 modulator | CtBP-E1A inh | D2 agonist | TRPML1 inh | TRPML1 ag | Six1-Eya2 inh
Cc1occc1C(=O)NNC(=O)Nc1ccc(F)cc1F | -1.2% | -3 | -4.5 | -2 | -0.5 | 9
O=C(NCCS(=O)(=O)N1CCN(c2ccc(F)cc2)CC1)c1cc(=O)c2ccccc2o1 | -0.4% | / | / | 4 | 1.7 | /
Cc1ccsc1C(=O)N1CCC1(C)C(=O)Nc1cccc(C#N)c1 (centres undefined) | 0.5% | 5 | 1.7 | / | -0.3 | 4
COc1ccc(C(=O)Nc2cc(Cl)ccc2C(=O)O)cc1 | 2.2% | -7 | -3.7 | -16 | 0.2 | -14
COC(=O)c1ccc(NC(=O)C2CCN(C(=O)c3cc(OC)c(OC)c(OC)c3)CC2)cc1 | -1.5% | -7 | 0.0 | 0 | 0.4 | -8
Cc1ccc(C(=O)Nc2ccc(C(=O)N/N=C/c3c[nH]c4ccccc34)cc2)cc1 | 4.2% | -29 | 6.6 | -4 | 2.5 | ?
CCCCN1C(=O)CN(CCc2ccccc2)C(=O)C1c1ccc(OC)cc1 (centres undefined) | -1.2%[38.3 µM] | 4 | -3.4 | 8 | -0.2 | -2
COc1ccc(NC(=O)c2ccc(S(=O)(=O)N3CC(C)CC(C)C3)cc2)cc1S(N)(=O)=O (centres undefined) | 1.6% | / | 0.3 | -8 | -0.8 | 7
CCOc1ccc2[nH]c3c(NCCO)ncnc3c2c1 | 1.2% | -11 | -0.7 | 24 | -0.8 | -9
Cc1ccc(-c2cc(-c3ccc(Cl)cc3)c(C#N)c(N)n2)o1 | 9.0% | 28 | 1.0 | 1 | 0.3 | 18
Cc1ccccc1Cn1c2ccccc2c2cnn(CC(=O)NCc3ccccn3)c(=O)c21 | -1.1%&2.1% | -2 | 3.7 | 2&5 | 0.1&1.2 | -3
Cc1ccc(NC(=O)Cn2nc(C(=O)O)c3ccccc3c2=O)cc1S(=O)(=O)N1CCCCC1 | 1.8% | -18 | -0.4 | -11 | 0.1 | ?
Cn1c(=O)c2cc(S(=O)(=O)Nc3ccc4c(c3)OCO4)ccc2n(C)c1=O | / | 8 | -2.5 | 3 | -0.2 | -17
CCOC(=O)c1nn(-c2cccc(C)c2)c2nc(-c3ccccc3)c(C#N)c(=O)n12 | 0.7% | 0 | -0.1 | 11 | -0.8 | 18
Cc1ccc(NC(=S)N2CCN(c3ncccn3)CC2)cc1C | -0.4% | 8 | 1.7 | 4 | 0.7 | -3
COc1ccc(NC(=O)CSc2nc(-c3ccco3)nc3cc(=O)[nH]n23)cc1Cl | 2.2% | -14 | 1.5 | 3 | 0.9 | -22
CC(NC(=O)c1cccc(S(=O)(=O)N2CCN(Cc3ccccc3)CC2)c1)c1ccc(Br)cc1 (centres undefined) | -1.8% | -5 | -0.6 | -17 | -0.5 | -10
Cc1[nH]c(=O)[nH]c(=O)c1S(=O)(=O)N1c2ccc(F)cc2CCC1C (centres undefined) | 7.0%[38.3 µM] | -1 | -3.0 | 4 | -0.6 | -1
Cn1c(=O)c2c(nc(N3CCOCC3)n2CC(=O)C23CC4CC(CC(C4)C2)C3)n(C)c1=O | 7.2% | -2 | -2.2 | -13 | -0.2 | -2
NC(=O)Cn1cc(C(=O)c2cccs2)c2ccccc21 | 0.5% | -7 | -3.0 | -7 | -0.3 | -3
CNC(=O)C(=O)Nc1ccc(C)cc1C | 0.1% | 10 | -2.8 | 2 | 0.0 | 8
N#CC1=C(N)Oc2cc(N)ccc2C1c1ccccc1Cl (centres undefined) | 4.8% | -7 | -0.3 | -7 | -0.2 | -1
COc1ccc(OC(=O)CSc2nnc(-c3ccc(F)cc3)o2)cc1 | 0.9% | / | / | 6 | 0.5 | /
CC(C)=CC1C(C(=O)Nc2ccc(Br)cn2)C1(C)C (centres undefined) | ? | 20 | -1.1 | 3 | 15 | 11
CCn1c(=N)n(CCOc2ccc(Br)cc2)c2ccccc21 | -1.2% | / | / | 8 | 5.2 | /
Cc1ccc(Cn2ccn(Cc3ccccc3F)c(=O)c2=O)cc1 | 0.7% | / | / | 8 | -0.3 | /
CN1CCN(CCOc2ccc(Cc3ccccc3)cc2)CC1 | 1.0% | 1 | -2.7 | -5 | -0.1 | 0
Cc1ccccc1NC(=O)N(O)C1(C#N)CCCCC1 | -4.9% | 8 | 3.7 | -3 | 0.8 | 6
Fc1ccc(-n2ncc3c(NCCCN4CCOCC4)ncnc32)cc1 | 0.3% | / | / | -1 | -0.9 | /
C#CCCCCCCCCC(=O)NCCCC | 0.6% | 20 | -3.6 | -3 | 0.3 | 2
CCC(C)NC(=O)C(=O)NC1CCCC1 (centres undefined) | -1.0% | -22 | -3.7 | 2 | 2.4 | 0
Cc1cc(Nc2cccc(C(F)(F)F)c2)nc2ccc(NC(=O)c3cccnc3)cc12 | 0.3% | / | / | -8 | 1.6 | /
Cc1cccn2c(=O)cc(CSc3nnc(NC(=O)COc4ccc(F)cc4)s3)nc12 | -1.9% | / | / | 30 | 1.3 | /
O=C(c1ccc2nc(-c3ccco3)c(-c3ccco3)nc2c1)N1CCN(c2ncccn2)CC1 | 5.8% | 0 | -0.8 | 3 | 0.3 | 0
Cc1nc2c(OCc3ccc(Cl)cc3Cl)cccn2c1N(C)Cc1cccs1 | ? | -6 | -4.6 | / | -1.0 | -5
Cc1c(NS(=O)(=O)c2cc(C(=O)NCC3CCCO3)cc(Cl)c2Cl)c(=O)n(-c2ccccc2)n1C (centres undefined) | 0.0% | 3 | -5.0 | -12 | -0.7 | 3
Cc1ccc(C2Nc3ccccc3-n3c(-c4ccccc4)c4c(=O)n(C)c(=O)n(C)c4c32)o1 (centres undefined) | -0.5% | / | / | 47 | 1.1 | /
O=C1CCC(C(=O)OCC(=O)Nc2ccc(Cl)cc2C(F)(F)F)=NN1 | -1.4% | -14 | -5.6 | 13 | -0.1 | -2
COc1cc2cc(CCCOC(=O)c3ccc(Br)cc3)oc(=O)c2cc1OC | 0.8% | -5 | 0.2 | 12 | 0.8 | -6
CC1C/C(=C/c2cccn2C)C(=O)/C(=C/c2cccn2C)C1 (centres undefined) | 26% | ? | -7.4 | -14 | 28 | ?
COc1cccc(C2c3[nH]c4ccccc4c3C[C@H]3C(=O)N(C)CC(=O)N23)c1 (some centres undefined) | 2.5% | 3 | -0.6 | / | / | 2
COc1ccccc1/C=C/C(=O)NCC(=O)N/N=C/c1cc(Br)ccc1OC | 1.3% | ? | -0.9 | 6 | 1.1 | ?
COc1cccc(N2CC(NC(=O)C(=O)c3c[nH]c4ccccc34)CC2=O)c1 (centres undefined) | 10% | -1 | 2.5 | -11 | -0.2 | -1
Cc1ccc(NC(=O)c2nc(C)n(-c3ccc([N+](=O)[O-])cc3)n2)cc1 | 5.3%[38.3 µM] | -12 | -1.5 | -4 | 0.3 | -8
CCN(CC(=O)NC1CCS(=O)(=O)C1)S(=O)(=O)c1c(C)c(C)cc(C)c1C (centres undefined) | 0.3% | 2 | -5.0 | -9 | -0.5 | 26
COc1ccc2c(Cl)c(C(=O)NN3CCN(C)CC3)sc2c1 | -0.3% | 0 | -3.8 | 15 | -0.2 | -2
CCN(CC)CCN1C(=O)c2ccccc2NC1c1ccccc1F (centres undefined) | / | 7 | -1.4 | 6 | 1.2 | 5
Cc1cc(C)nc(SCc2cc(=O)c(OC(=O)c3cccc([N+](=O)[O-])c3)co2)n1 | -0.9% | 22 | 1.3 | 8 | 0.1 | -3
c1ccc(Cn2nnc3c(NCC4CC4)ncnc32)cc1 | 0.4% | 0 | 0.8 | -4 | -0.5 | -1
Cc1ccc(S(=O)(=O)Nc2nc(C)c(NC(=O)Nc3ccc(Cl)cc3Cl)s2)cc1 | 0.9% | 7 | 14 | 40 | 0.7 | -4
Additional entries follow.
SMILES | PINK1 modulator | CtBP-E1A inh | D2 agonist | TRPML1 inh | TRPML1 ag | Six1-Eya2 inh
Cc1cc2c(cc1C)C(c1cc(Br)ccc1F)CC(=O)N2 (centres undefined) | 10% | 6 | -2.1 | -16 | -0.5 | 1
O=C(Nc1ccccc1)Nc1ccccc1NS(=O)(=O)c1cccs1 | 0.9% | 2 | -2.0 | -8 | -0.4 | -6
O=C(O)C1(O)C[C@H](O)C(O)[C@@H](O)C1 (some centres undefined) | 1.4% | 4 | -3.9 | -12 | -0.7 | -1
CC1(C)Cc2c(C#N)c(SCc3ccccc3)nc(N3CCOCC3)c2CO1 | 17% | -4 | -3.2 | -2 | -0.3 | 2
CCN(C(=O)COC(=O)c1cccnc1SC)C1CCS(=O)(=O)C1 (centres undefined) | 1.6% | -2 | 0.5 | 0 | -1.1 | -2
CC1=C(C)C(=O)N(CCC(=O)O)C1=O | 0.1%[38.3 µM] | 5 | -1.4 | 1 | -0.7 | 2
COc1cccc(C(O)c2nc(-c3cccc(C(C)C)c3)cs2)c1 (centres undefined) | 4.7% | 4 | 9.9 | / | 0.3 | 4
O=c1c(N=Nc2ccc(O)cc2)c(-c2ccccc2)[nH]n1-c1ccc([N+](=O)[O-])cc1 | 6.5% | -10 | 0.5 | 0 | -0.4 | -19
COc1ccccc1CCC(=O)OCC(=O)Nc1ccc(C(N)=O)cc1 | 2.7% | -1 | -4.5 | -4 | -0.2 | -8
COc1cccc(CNC(=S)NC2CCCC2)c1 | 7.0% | 5 | -2.5 | 34 | 5.5 | -6

By substructure, the entries above with a CF3 group.
SMILES | PINK1 modulator | CtBP-E1A inh | D2 agonist | TRPML1 inh | TRPML1 ag | Six1-Eya2 inh
Cc1cc(Nc2cccc(C(F)(F)F)c2)nc2ccc(NC(=O)c3cccnc3)cc12 | 0.3% | / | / | -8 | 1.6 | /
O=C1CCC(C(=O)OCC(=O)Nc2ccc(Cl)cc2C(F)(F)F)=NN1 | -1.4% | -14 | -5.6 | 13 | -0.1 | -2

Full records, looked up by structure. Values in the order: PINK1 modulator	CtBP-E1A inh	D2 agonist	TRPML1 inh	TRPML1 ag	Six1-Eya2 inh
CC1(C)Cc2c(C#N)c(SCc3ccccc3)nc(N3CCOCC3)c2CO1 is listed as 17%	-4	-3.2	-2	-0.3	2
Cc1cc2c(cc1C)C(c1cc(Br)ccc1F)CC(=O)N2 (centres undefined) is listed as 10%	6	-2.1	-16	-0.5	1

(more compounds)
SMILES | PINK1 modulator | CtBP-E1A inh | D2 agonist | TRPML1 inh | TRPML1 ag | Six1-Eya2 inh
Cc1ccccc1NC(=O)CSc1nc(Nc2ccccc2)nc(N2CCOCC2)n1 | 11% | 1 | 2.6 | -7 | 0.3 | 7
O=C(NNC(=O)c1ccccc1Cl)c1cccs1 | 2.8% | 0 | -2.9 | 2 | -0.8 | 1
Cc1ccccc1OCc1nc2ccccc2c(=O)n1/N=C/c1cn[nH]c1-c1ccc(Br)cc1 | 26% | -13 | -2.6 | 19 | 0.9 | 1
CN1CCC(N(C)C(=S)Nc2ccc(SC(F)F)cc2)CC1 | 1.6% | 12 | -4.2 | 4 | -0.2 | -3
Cc1cccc(N2C(=N)SCC2=O)c1C | 5.1% | -3 | -2.1 | 6 | 0.9 | 7

Screens: PubChem BioAssay, National Center for Advancing Translational Sciences (NCATS)
